# Bioassay records as filed in PubChem.
# Mtb hypoxia rep – inhibitors of hypoxia-regulated fluorescent reporter in Mycobacterium tuberculosis; M. tuberculosis hypoxia-regulated fluorescent reporter, fluorescence; fluorescence inhibition, % (test concentration not listed); 300,000 tested, 0.1% active; AID 1159583;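 active = 35 to 45% if threefold the growth effect, above 45% if 1.5-fold the growth effect; inactive = the rest, general growth blockers included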;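 also: wells of about 50 µL received 100 nL stock; 0% = vehicle wells and 100% = reference inhibitor wells; whole bacteria with a GFP reporter of the hypoxia response; strong numbers were not always called active; many hits fall short of the cut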
# Bead autofluor – counter-screen for toxin protease inhibitors: compound fluorescence | compound autofluorescence counterscreen, microsphere flow cytometry; active compounds read high | fluorescence intensity (no concentration beside the values) | 360,000 tested, 3.1% active | AID 624483;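 active = at least 3 SD above the mean of all compounds, about 16000 in these data; inconclusive = too few beads counted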;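 also: 100 nL of 1 mM stock went into each well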
# PrP UTR inh – inhibition of PrP 5' UTR reporter expression. cell-based PrP 5' UTR mRNA reporter, plate reader. inhibition, % (no concentration beside the values). 340,000 tested, 0.35% active. AID 488862;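 active = every replicate at 50% or more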;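 also: 0 = median of the neutral control wells; tested in H4 reporter cells; numbers are from one replicate; inactives centre near -14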
# Sa ugtP lethal – compounds lethal to S. aureus RN4220 ugtP deletion mutant | OD600 growth, 16 h; some inactives read as strong as hits | 330,000 tested, 0.54% active | growth inhibition, % (test concentration not listed);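 active = z-score under -3 and OD600 up to 0.15 on both plates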;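 also: plate controls were untreated wells for no effect and antibiotic for full effect; wells of about 80 µL received 100 nL stock; the first replicate is given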
# RN4220 kill – kills Staphylococcus aureus RN4220 | S. aureus RN4220 growth, OD600, 16 h | 330,000 tested, 0.33% active | inhibition, % (test concentration not listed);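 active = z-score of -3 or lower and OD600 up to 0.18 on both plates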;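 also: plate controls were untreated cells for no effect and reference antibiotic for full effect; stock transfer was 100 nL into about 80 µL; one replicate is shown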
# BJeLR viability – BJeLR cell viability loss. BJeLR (HRASV12) viability, CellTiter-Glo ATP luminescence, 48 h; reference of the scale not given here. inhibition, % (concentration not given with the values). 300,000 tested, 0.17% active. AID 1554;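 active = replicate mean above 50%; inconclusive = above 50% but judged a plate artefact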;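 also: 50 nL library stock added to about 25 µL; numbers are from one replicate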
# Mtb hypoxia rep growth – further read-out of Mtb hypoxia rep, marked with its call; growth inhibition, %; measured here: M. tuberculosis growth (absorbance);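 0% = vehicle and 100% = reference antibiotic; read after six days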
# * marks the source's active call; other numbers are inactive results; ? = inconclusive; . = no result given.
SMILES,Mtb hypoxia rep,Mtb hypoxia rep growth,Bead autofluor,PrP UTR inh,Sa ugtP lethal,RN4220 kill,BJeLR viability
CN(CC(=O)Nc1ccc(Cl)cc1)C(=O)c1ccc(-n2cncn2)c([N+](=O)[O-])c1,3,2,4640,-6,1,-4.3,-18
COc1ccc(C(=O)NN=Cc2coc3ccc(Cl)cc3c2=O)cc1,4,-1,.,.,3,0.1,.
CCCC(NS(=O)(=O)c1ccc(C)cc1)C(=O)O (stereo not drawn),7,1,3905,-17,1,-1.3,1
COc1cc(C(=O)N2CCN(C(=O)COc3ccc4ccccc4c3)CC2)cc(OC)c1OC,8,14,3276,-6,-24,-6.0,11
O=C(O)c1ccc(OCc2cn3ccccc3n2)cc1,.,.,3709,-7,.,.,12
COc1cc(/C=C/C(=O)O)cc(S(=O)(=O)Nc2cccc(SC)c2)c1OC,2,-2,2060,-17,2,-0.5,-3
COc1ccc(OCC(O)CNC(=O)c2ccc(C)cc2)cc1 (stereo not drawn),0,-4,5816,-18,4,1.7,-14
COc1cc2c(cc1OC)C1C/C(=N\O)C(CC(C)C)CN1CC2 (stereo not drawn),.,.,3027,-18,.,.,0
CCOc1ccccc1Oc1nc(-c2ccccc2O)nc2ccccc12,2,-7,3953,-23,20,-11,-2
COc1cccc(NCc2cc(=O)oc3cc(C)c(C(C)C)cc23)c1,3,5,3903,-68,-9,2.4,-6
COC(=O)c1cc(C(=O)Nc2nnc(CC(C)C)s2)cc([N+](=O)[O-])c1,3,6,2505,-17,-7,9.3,3
COc1ccc(C(=O)NC(NC(=O)c2ccc(OC)c(OC)c2)c2ccccc2F)cc1OC,6,8,2140,2,2,2.4,-4
O=C(Nc1cccc(C(F)(F)F)c1)C(SCCO)c1ccccc1 (stereo not drawn),2,-6,2810,-13,-10,-3.2,-10
O=C(O)c1ccc(NC(=O)C2C3CCC(C3)C2C(=O)O)cc1 (stereo not drawn),.,.,2166,-7,10,4.4,-7
C[C@]1(C(=O)NCCN2CCOCC2)C=C[C@@H](Cc2ccccc2)N1C(=O)c1ccccc1,.,.,4485,-17,.,.,5
CCOC(=O)Cn1c(-c2ccc(OC)cc2)c(-c2ccc(OC)cc2)nnc1=O,18,1,3888,-1,3,3.9,-21
O=C(NCCc1ccc2c(c1)OCCO2)c1ccccc1F,1,4,2059,-44,4,4.5,-11
CC(C)(C)C1=Nn2c(nnc2-c2n[nH]c3c2CCC3)SC1,.,.,5000,-13,-6,-0.5,.
COc1ccc(C=NNC(=O)CSc2ccccc2)cc1OC,18,7,.,.,6,4.3,.
Clc1ccc(Nc2nc(C3CC3)cs2)cc1,12,8,4505,-1,3,-4.0,-3
O=C1OCc2cc(NC(=O)C3CCCO3)ccc21 (stereo not drawn),5,-9,?,-2,8,4.7,1
CCCC=NNC(=O)c1cccc(Br)c1,7,2,.,.,-2,-0.3,.
CC(C)OP(=O)(OC(C)C)C(O)c1ccc2c(c1)OCO2 (stereo not drawn),-4,-4,2698,-27,5,5.7,-1
COc1ccc(NC(=O)c2nc(C)c(C3(C)CC(c4ccccc4)=NO3)s2)cc1 (stereo not drawn),-1,17,3478,-37,18,5.2,7
O=C(Nc1ccccc1)N(O)c1ccc(Cl)cc1,20,20,3136,-57,-7,3.5,0
CSc1ccccc1NC(=O)Nc1ccccc1Cl,-17,8,4804,-19,-6,1.6,-2
COC(=O)c1ccc(C(=S)NCC2(N(C)C)CCCCC2)cc1,18,6,4002,-14,15,2.3,-6
COc1cccc(NC(=O)c2cnn(-c3ccccc3)c2C)c1,3,8,3843,-24,4,1.4,15
CCOc1ccccc1N(C(=O)c1snc(C(N)=O)c1N)C(C(=O)NCC1CCCO1)c1ccc2ncccc2c1 (stereo not drawn),5,1,3678,-24,0,2.6,7
CN(CC(=O)Nc1ccc(Cl)cc1)C(=O)CCC1CCCC1,8,-3,4377,-8,8,3.0,0
O=[N+]([O-])c1ccc(O)c(CSc2nnnn2-c2ccccc2)c1,-3,-1,3647,-22,6,-0.1,-2
CC(C)(C)OC(=O)N1Cc2ccccc2C[C@H]1C(=O)NCC(=O)NCC1CCCO1 (stereo partly drawn),7,19,5938,-3,-2,3.3,4
CC1CC(=O)N(CC(=O)Nc2ccc3c(c2)OCO3)c2ccccc2S1 (stereo not drawn),7,-5,17388*,7,-1,0.9,4
O=C(Nc1c(C(=O)N2CCCCC2)cnn1-c1ccccc1)c1ccccc1,2,7,5816,-8,6,5.1,-18
O=C(COC(=O)c1ccccc1)NC(=O)NC1CCCC1,5,0,6190,-8,-1,0.1,.
COc1cccc(/C=C/c2[nH]c(=O)[nH]c(=O)c2[N+](=O)[O-])c1O,3,-1,3698,-6,11,-0.7,-8
COC(=O)CNc1nc(Cl)nc(NC2CCCCC2)n1,-4,-7,3959,-39,-5,-3.8,6
CCOC(=O)c1cccc(NC(=O)CNC(=O)C2CCCCC2)c1,12,-2,9144,-10,18,2.1,5
CCCN1Cc2cccc(C(=O)NCCc3cccc(C)c3)c2C1=O,-12,-1,3086,-1,-5,0.6,-1
CC1(C)CC(=O)C(C=NCc2ccccn2)=C(O)C1,3,0,9119,-16,7,3.2,-3
COc1ccccc1NC(=O)C1CCCN(C(=O)NCc2ccccc2)C1 (stereo not drawn),1,-6,4505,-8,-1,-0.9,-8
Fc1ccc(NC(=S)Nc2nccs2)cc1,21,26,4375,-54,-1,-4.8,7
O=C(O)CCc1nc2cc(Cl)ccc2n(Cc2ccccc2)c1=O,7,4,4743,-34,8,-0.3,2
CCC1C(=O)Nc2ccccc2N1C(=O)c1ccc(Cl)nc1 (stereo not drawn),17,10,2151,-16,7,4.6,7
CCOC(=O)N1CCN(C(=O)COC(=O)c2ccc([N+](=O)[O-])cc2Cl)CC1,17,26,.,-14,9,1.4,.
CCn1c(SCc2ccccc2)nc2cc(S(N)(=O)=O)ccc21,12,12,5366,-5,3,1.2,7
CCOc1ccc(NC(=O)CCC(=O)c2ccc(-c3ccccc3)cc2)cc1,3,4,2475,-26,3,0.7,-1
CON=C(CCC(=O)O)c1cccs1,7,-2,.,.,4,2.0,.
Cc1cc([N+](=O)[O-])c2[nH]c(C(=O)N/N=C/c3ccccc3C(=O)O)c(-c3ccccc3)c2c1,.,.,19535*,-9,.,.,-5
CCOC(=O)c1sc(=NC(=O)c2ccc(F)cc2)n(C)c1C,8,4,5998,-123,2,0.0,-12
COc1ccccc1NC(=O)COc1ccc(Br)cc1CNCCCN1CCOCC1,12,10,4324,-37,-3,-1.3,3
COc1ccc(-n2c(C)cc(C(=O)COC(=O)Cn3cnc4ccccc43)c2C)cc1,5,7,3926,-17,2,1.8,24
N#Cc1nc(-c2ccccc2)oc1NCc1ccco1,4,-5,6071,-26,8,2.3,-5
Cc1c(C(=O)N2CCOCC2)oc2ccc(Br)cc12,5,6,?,-20,5,2.0,1
CN1CC(c2ccccn2)C2(SC(=S)N(Cc3ccccc3)C2=O)C12C(=O)Nc1ccccc12 (stereo not drawn),7,10,10701,-9,-34,-2.0,3
Cc1ccc(CNc2nc(C)c(C(=O)N(C)C)s2)cc1,6,1,4280,-35,12,1.5,-18
COc1cccc(N2C(CC(C)=O)c3ccc(C=CC(C)=O)cc3S2(=O)=O)c1 (stereo not drawn),7,10,.,.,8,4.6,.
Cc1cc(C)c(C)c(S(=O)(=O)Nc2cccc(-n3cnnn3)c2)c1C,1,0,5760,-3,-4,3.5,-6
Cc1nn(C(C)C(=O)NC(C)CCc2ccccc2)c(=O)c2cc3occc3n12 (stereo not drawn),1,12,5502,-10,-4,7.7,1
CC1C(c2ccccc2)OC(c2ccccc2Br)N1C (stereo not drawn),4,8,.,.,6,14,.

# Later entries:
SMILES,Mtb hypoxia rep,Mtb hypoxia rep growth,Bead autofluor,PrP UTR inh,Sa ugtP lethal,RN4220 kill,BJeLR viability
O=C(NC1CCCCC1)c1cc(-c2cccc(Cl)c2)on1,14,8,5670,-44,-3,5.3,-8
Cc1cc(C)c2cc3c(N)c(C(=O)N4CCc5ccccc5C4)sc3nc2c1,7,0,6427,-16,0,5.0,-1
CC(C)(C)NC(=O)N1CCN(c2nc(-c3ccccc3)ns2)CC1,2,-7,4413,-38,1,-0.9,5
CCOc1ccc(C(=O)N2CCCC2)cc1,8,3,9070,-10,14,5.9,-6
CCc1nc(SCC(=O)Nc2nc3c(s2)CCCC3)c2ccccc2n1,3,17,5882,-8,-31,2.6,-1
O=C(CNC(=O)c1ccncc1)N/N=C/c1cc(Br)ccc1OCc1ccccc1,.,.,6037,-28,.,.,-7
COCc1nnc(NC(=O)c2ccc(S(=O)(=O)N(C)C3CCCCC3)cc2)o1,.,.,4650,-12,5,22,-4
Cc1[nH]nc2c1C(c1ccccc1F)NC2=O (stereo not drawn),4,7,5109,-13,7,1.7,11
COc1ccccc1N=C(C)C1=C(O)CC(c2ccccc2)CC1=O (stereo not drawn),-3,4,3853,44,-10,16,39
S=c1nc(COc2ccccc2)[nH]c2ccccc12,.,.,3753,-19,.,.,-6
Cc1cccc(NC(=O)CSCC(=O)N(CCC(C)C)c2c(N)n(Cc3ccccc3)c(=O)[nH]c2=O)c1,4,14,5372,-11,3,-1.7,-1
COc1ccc(COC(=O)NNC(=O)c2ccc(OC)cc2)cc1,3,-10,4547,-20,3,2.0,0
CSc1nncc(-c2ccc(F)cc2)n1,.,.,3046,0,-4,-1.3,-1
CCCCOc1ccc(-c2nnn(C(C)(C)C(=O)OC)n2)cc1,4,6,3579,-42,17,10,2
COC(=O)c1c(NC(=O)CN2CCC3(O)CCCCC3C2c2ccccc2OC)sc(C)c1C (stereo not drawn),2,10,1978,-8,-13,1.7,-5
Cc1ccc(S(=O)(=O)N2CCN(C(=O)COC(=O)/C=C/c3cccc(Cl)c3)CC2)c(C)c1,13,45,3869,-9,-5,1.1,.
C=CCNC(=O)C1CC(=O)N(c2ccc(C)cc2)C1 (stereo not drawn),.,.,5473,-10,-3,-4.1,-2
CCCCNC(=O)NS(=O)(=O)c1ccc(NC(=O)C(NC(N)=O)C(C)CC)cc1 (stereo not drawn),-9,3,4999,-22,11,3.5,-3
Cc1cc(C)c(S(=O)(=O)Nc2ccccc2)c(C)c1,9,8,3493,-17,-1,2.3,.
CCC/S(CC1CC1(Cl)Cl)=N\S(=O)(=O)c1ccc(C)cc1 (stereo not drawn),8,5,8016,-73,6,1.5,20
COC(=O)C1CN(C(=O)COc2cc(C)cc(C)c2)c2ccccc2O1 (stereo not drawn),-6,8,3529,-9,-3,-0.8,-3
Cc1ccc2c(c1)N(CC(=O)NCCCc1ccccc1)C(=O)c1cccnc1O2,.,.,6520,-12,10,2.3,-14
CCCn1c(-c2cc(OC)c(OC)c(OC)c2)nc2nc3ccccc3nc21,11,4,9693,-13,-11,2.1,4
CCCn1c(C(C)Nc2nc(-c3ccc(Cl)c([N+](=O)[O-])c3)cs2)nc2cc(Cl)c(N3CCCCC3)cc21 (stereo not drawn),-2,2,3703,-13,1,7.9,2
Nc1cc(=O)nc(SCC(=O)Nc2ccccc2)n1-c1ccccc1,4,-4,2472,-10,-3,2.7,-5

# A second format for part of the listing above.
canonical_smiles: Cc1cc(C)c(S(=O)(=O)Nc2ccccc2)c(C)c1
- Mtb hypoxia rep: 9
- Mtb hypoxia rep growth: 8
- Bead autofluor: 3493
- PrP UTR inh: -17
- Sa ugtP lethal: -1
- RN4220 kill: 2.3
- BJeLR viability: .
canonical_smiles: CON=C(CCC(=O)O)c1cccs1
- Mtb hypoxia rep: 7
- Mtb hypoxia rep growth: -2
- Bead autofluor: .
- PrP UTR inh: .
- Sa ugtP lethal: 4
- RN4220 kill: 2.0
- BJeLR viability: .
canonical_smiles: CC(C)(C)OC(=O)N1Cc2ccccc2C[C@H]1C(=O)NCC(=O)NCC1CCCO1 (stereo partly drawn)
- Mtb hypoxia rep: 7
- Mtb hypoxia rep growth: 19
- Bead autofluor: 5938
- PrP UTR inh: -3
- Sa ugtP lethal: -2
- RN4220 kill: 3.3
- BJeLR viability: 4
canonical_smiles: CCOC(=O)N1CCN(C(=O)COC(=O)c2ccc([N+](=O)[O-])cc2Cl)CC1
- Mtb hypoxia rep: 17
- Mtb hypoxia rep growth: 26
- Bead autofluor: .
- PrP UTR inh: -14
- Sa ugtP lethal: 9
- RN4220 kill: 1.4
- BJeLR viability: .
